Source: PubChem (Johns Hopkins Ion Channel Center)
KCNQ2 inh = KCNQ2 potassium channel inhibitors, primary screen, cell-based, CHO-K1, FluxOR thallium flux, B-score (AID 2156); O88943; 20 min; hits give low values; only compounds with negative scores are shown here; some inactives read as strong as hits; B-score at 10 µM; 310,000 compounds, 1.1% hits;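 active = fluorescence ratio B-score at most minus 3 library SDs, with starting brightness B-score within 2 library SDs, cut at about -5.5 in these data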
Target sequence (O88943 whole entry, looked up): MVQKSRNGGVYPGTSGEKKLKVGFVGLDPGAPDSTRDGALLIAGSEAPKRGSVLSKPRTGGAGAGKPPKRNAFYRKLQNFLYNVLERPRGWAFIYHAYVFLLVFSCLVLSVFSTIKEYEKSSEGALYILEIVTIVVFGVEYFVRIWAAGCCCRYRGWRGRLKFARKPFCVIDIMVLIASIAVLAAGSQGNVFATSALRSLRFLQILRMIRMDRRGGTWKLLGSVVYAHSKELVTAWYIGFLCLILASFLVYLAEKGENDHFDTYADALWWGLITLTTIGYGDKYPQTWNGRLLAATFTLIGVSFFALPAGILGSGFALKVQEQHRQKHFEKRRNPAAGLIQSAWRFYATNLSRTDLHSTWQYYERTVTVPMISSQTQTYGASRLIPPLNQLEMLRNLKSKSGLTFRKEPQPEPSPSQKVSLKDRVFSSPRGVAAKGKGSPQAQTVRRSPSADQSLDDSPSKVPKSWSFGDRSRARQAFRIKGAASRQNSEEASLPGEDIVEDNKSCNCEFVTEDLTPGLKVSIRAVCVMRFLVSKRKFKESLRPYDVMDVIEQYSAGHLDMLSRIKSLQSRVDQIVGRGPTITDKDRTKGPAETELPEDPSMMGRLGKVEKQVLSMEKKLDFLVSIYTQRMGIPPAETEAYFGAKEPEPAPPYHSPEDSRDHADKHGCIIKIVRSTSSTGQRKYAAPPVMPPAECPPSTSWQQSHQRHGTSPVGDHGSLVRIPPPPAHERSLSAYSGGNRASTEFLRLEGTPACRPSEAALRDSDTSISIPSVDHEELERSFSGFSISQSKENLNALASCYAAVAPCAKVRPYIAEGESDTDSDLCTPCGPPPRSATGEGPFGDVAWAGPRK
KCNQ2 inh baseline = also measured in KCNQ2 inh; calls as there; B-score; measured here: initial fluorescence intensity artifact check;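 brightness before thallium and not channel activity; 0 = typical well and far values either way flag optical interference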
Starred values were filed as active, the others as inactive; i = inactive. Some of the compounds tested; the hit share may differ from the screen's.

nr	canonical_smiles	KCNQ2 inh	KCNQ2 inh baseline
1	O=C(c1sc2cc([N+](=O)[O-])ccc2c1Cl)N1CCCCC1	i	-0.61
2	Cn1c(=O)c2c(nc(N3CCOCC3)n2CCCNC2=NCCCCC2)n(C)c1=O	i	0.28
3	COCCCNC(=S)NNC(=O)C1CC1c1ccc(C(C)(C)C)cc1 (stereo not given)	i	0.79
4	CC(=O)c1cccc(NC(=O)CCS(=O)(=O)c2cccc3nsnc23)c1	i	1.9
5	CCOC(=O)C(C)(C)NS(=O)(=O)c1ccc(Cl)c([N+](=O)[O-])c1	i	-0.83
6	CCCc1nc2ccccc2c(C(=O)OC2CCOC2=O)c1CC (stereo not given)	i	-3
7	CCSc1nnc(-c2cccc(S(=O)(=O)N(C)C)c2)n1-c1cc(OC)ccc1OC	i	-1.1
8	CCOc1ccc(CN2CCN(Cc3cc4c(cc3Cl)OCO4)CC2CCO)cc1 (stereo not given)	i	-2.4

Laid out differently: results already given
5. CCOC(=O)C(C)(C)NS(=O)(=O)c1ccc(Cl)c([N+](=O)[O-])c1
8. CCOc1ccc(CN2CCN(Cc3cc4c(cc3Cl)OCO4)CC2CCO)cc1 (stereo not given)
3. COCCCNC(=S)NNC(=O)C1CC1c1ccc(C(C)(C)C)cc1 (stereo not given)
2. Cn1c(=O)c2c(nc(N3CCOCC3)n2CCCNC2=NCCCCC2)n(C)c1=O
7. CCSc1nnc(-c2cccc(S(=O)(=O)N(C)C)c2)n1-c1cc(OC)ccc1OC
1. O=C(c1sc2cc([N+](=O)[O-])ccc2c1Cl)N1CCCCC1
4. CC(=O)c1cccc(NC(=O)CCS(=O)(=O)c2cccc3nsnc23)c1

Compound	5	8	3	2	7	1	4
KCNQ2 inh	i	i	i	i	i	i	i
KCNQ2 inh baseline	-0.83	-2.4	0.79	0.28	-1.1	-0.61	1.9

Next structures.
nr	canonical_smiles	KCNQ2 inh	KCNQ2 inh baseline
9	O=C(COc1ccccc1Cl)N1CCCC1	i	-0.09
10	CCn1c(CNc2ccc(OC)cc2)nnc1SCC(=O)c1ccc(OC)cc1	i	-2.7
11	CN1CCN(S(=O)(=O)c2ccc3c(c2)OCCO3)CC1	i	-1.2
12	N#C/C(=C\c1cccnc1)C(=O)Nc1ccc(SC(F)F)cc1	i	-0.06
13	CCCCCCc1ccc(OC(=O)c2ccncc2)cc1	i	-0.24
14	CC1CCCCC12NC(=O)N(CC(=O)Nc1ccccc1N1CCOCC1)C2=O (stereo not given)	i	0.95
15	NC(=S)NNC(=O)c1ccccc1	i	-0.32
16	CC(=O)Nc1ccc(NC(=O)COC(=O)c2c3c(nc4ccccc24)CCN(Cc2ccccc2)C3)cc1	i	-1.3
17	O=C(COc1ccccc1)Nc1ccc(S(=O)(=O)Nc2ncccn2)cc1	i	-0.06
18	Cc1ccc(CSCCNS(=O)(=O)c2ccc(C)cc2)cc1	i	-2.1
19	CCOc1ccc(-c2cn(-c3cccc(SC)c3)c(=O)[nH]2)cc1	i	0.23
20	CCC(C)NS(=O)(=O)c1ccc(-c2csnn2)s1 (stereo not given)	i	0.13
21	Cc1ccc(C(=O)N/N=C/c2c(O)ccc3ccccc23)cn1	i	0.6
22	CCCC1CCC(c2ccc(/C(N)=N/O)cc2)CC1 (stereo not given)	i	2.2
23	CS(=O)(=O)c1ccc(Cl)c(NC(=O)COC(=O)/C=C/c2cnc3ccccc3n2)c1	i	0.01
24	OCC#CCSc1nnc(-c2ccccc2Br)o1	i	0.04
25	O=C(Nc1cc(C(F)(F)F)ccc1N1CCOCC1)c1ccc(Cl)nc1	i	-0.15
26	CCOCCCNc1nc2c(C)cccn2c(=O)c1/C=C1\SC(=S)N(C(C)CC)C1=O (stereo not given)	i	1.1
27	CCn1ncc(S(=O)(=O)NCc2ccccc2Cl)c1C	i	2.6
28	COc1ccc(NC(=O)Nc2c[nH]c(=O)[nH]c2=O)cc1OC	i	-0.33
29	Cc1ccc2[nH]c(=O)c3cc(C(=O)NC(C)C)sc3c2c1	i	2.2
30	Cc1[nH]c(=O)[nH]c(=O)c1/C=N/NC(=O)[C@H](C)N	i	1.7
31	OCCN1CCN(Cc2cc(Br)cc(Br)c2O)CC1	i	-1.4
32	COc1ccc(CN2CCN(CC=C(C)C)C(CCO)C2)cc1Cn1cccn1 (stereo not given)	i	-0.71
33	Cc1cnc(NC(=O)CN2CCN(c3ccccc3F)CC2)s1	i	0.9
34	Cc1ccc(C(=O)NCCCNC(=O)c2ccccc2F)cn1	i	-2.7
35	COc1ccc(S(=O)(=O)NC2(C(F)(F)F)N=C3SCCN3C2=O)cc1 (stereo not given)	i	-0.8
36	O=C(c1ccc(CS(=O)Cc2ccc(Cl)cc2)o1)N1CCN(c2ccccc2)CC1 (stereo not given)	i	0.03
37	Cc1ccc(S(=O)(=O)Nc2ccc3c(c2)nc(CCN2CCOCC2)n3C)cc1	i	-0.45
38	COC(=O)CCC(=O)Nc1cccc([N+](=O)[O-])c1	i	0.02
39	COc1ccc2c(OC)cc(-c3ccccc3)nc2c1	i	-0.97
40	COc1cccc(CN(C(=O)COc2ccc(Cl)cc2)C2CCS(=O)(=O)C2)c1 (stereo not given)	i	1.4
41	Cc1ccc(NC(=O)CN(C)CC(=O)Nc2cccc(F)c2)cc1[N+](=O)[O-]	i	-0.11
42	Cc1ccc(CS/C(Nc2ccccc2C)=C(\C#N)C(=O)NCc2ccco2)c(C)c1	i	-1.3
43	COc1cccc(Nc2c3c(nc4c(-c5ccccc5)c(C)nn24)CCC3)c1	i	-0.89
44	CSc1nnc(Cc2cc(=O)[nH]c(=O)[nH]2)n1-c1cccc(C)c1	i	-0.72
45	COc1ccc(OC)c(NC(=O)COC(=O)/C=C/c2ccccc2Cl)c1	i	-0.26
46	COc1ccc(N=Cc2sc3ccccc3c2Cl)cc1	i	-0.14
47	O=C(O)CCCCCN1C(=O)/C(=C\c2ccncc2)SC1=S	i	-0.45
48	CCOc1ccc(N2C(=O)CC(Sc3ncccn3)C2=O)cc1 (stereo not given)	i	0.26
49	N#Cc1ccc(Cl)cc1NC(=O)COC(=O)[C@H](CCC(N)=O)NC(=O)c1ccc(F)cc1	i	-0.03
50	COCCNc1nc(C)c(C(C)=O)s1	i	0.02
51	CC1CCCN(C(=O)c2ccc(COc3ccccc3Br)cc2)C1 (stereo not given)	i	-1.9
52	O=C(NCc1ccco1)C1CCN(S(=O)(=O)Cc2ccccc2)CC1	i	0.57
53	Oc1c(C(c2cccs2)N2CCN(c3ccc(F)cc3)CC2)sc2ncnn12 (stereo not given)	i	-0.69
54	COc1cc(NC(=O)c2c(F)c(F)c(OC)c(F)c2F)ccc1NC(=O)c1cccs1	i	1.2
55	Cc1cc2cc(CNS(=O)(=O)c3ccccc3)ccc2n1C	i	-0.07
56	COc1ccc(S(=O)(=O)N(C)CC(=O)N2CCCCCC2)cc1OC	i	1.8
57	COc1cc(/C=C/C(=O)O)cc(S(=O)(=O)NCC2CCCO2)c1OC (stereo not given)	i	-0.01
58	CC(C)(C)C(=O)Nc1ccc(C(=O)N/N=C/C2CC3C=CC2C3)cc1 (stereo not given)	i	-0.28
59	Cc1ccc(Cn2nnc3c(=O)[nH]c(C4CCN(C(=O)c5cccs5)CC4)nc32)cc1	i	0.84
60	O=C(Cn1c(=O)oc2cc(S(=O)(=O)N3CCCCC3)ccc21)N1CCc2ccccc21	i	-0.28
61	O=C1c2ccccc2C(Nc2ccccc2F)N1c1cccnc1 (stereo not given)	i	-1.9
62	COc1cccc(C(=O)NCC(c2cccnc2)N2CCN(c3ccccc3OC)CC2)c1 (stereo not given)	i	-1.3
63	S=C(c1ccc(-c2ccc(Cl)cc2)o1)N1CCCCC1	i	1.4
64	O=C1CCN2C=Nc3cccc4ccc1c2c34	i	83

The results go on.
nr	canonical_smiles	KCNQ2 inh	KCNQ2 inh baseline
65	C=CCOC(=O)C1=C[C@H](c2ccc(Br)cc2)C[C@H](OCCCCO)O1	i	0.14
66	O=C(NC(=S)NNC(=O)c1ccco1)c1ccc(Br)cc1	i	-0.36
67	COc1ccc(N2CCN(C(=O)C3CCCN(S(=O)(=O)c4cccc5cccnc45)C3)CC2)cc1 (stereo not given)	i	-0.05
68	COc1cc(C(=S)N2CCOCC2)cc(OC)c1OC(=O)c1ccc(F)cc1	i	-0.14
69	OCCNCCNCc1ccc(-c2ccccc2)cc1	i	-0.01
70	NC(=O)C1CCN(C(=O)c2ccc3c(=O)n(Cc4ccco4)c(SCC(=O)c4ccc(F)cc4)nc3c2)CC1	i	0.28
71	CN(C)C(C)(C)/C=C/C(O)(c1ccccc1)c1ccccc1	i	1.9
72	CSCCC(NC(=O)COc1ccccc1)C(=O)N1CCN(c2ccccc2F)CC1 (stereo not given)	i	-0.07
73	COc1cc(/C=N/NC(=O)CNc2n[nH]c(=O)[nH]c2=O)ccc1OCc1ccccc1	i	-0.03
74	CC(C)CC(NC(=O)c1ccccc1)C(=O)N/N=C/c1ccco1 (stereo not given)	i	1.2
75	Cc1ccc(Cl)c2sc(NC(=O)C3CC3)nc12	i	0.33
76	O=C(NCCc1c[nH]c2ccccc12)c1cccc(S(=O)(=O)Nc2ccccc2Cl)c1	i	0.97
77	CCOC(=O)CNC(=S)N(Cc1ccccc1)Cc1cccs1	i	-1.7
78	Cc1ccccc1Cn1c(CN2CCc3ccccc3C2)nc2c1c(=O)n(C)c(=O)n2C	-6.1*	-0.02*
79	CCOc1ccc(-n2c(=O)c3sccc3n(CC(=O)NCc3ccco3)c2=O)cc1	i	-1.1
80	O=c1ccc2cc(S(=O)(=O)N3CCN(c4ccccc4)CC3)ccc2[nH]1	i	-0.82

Two entries from above, set out differently:
76. O=C(NCCc1c[nH]c2ccccc12)c1cccc(S(=O)(=O)Nc2ccccc2Cl)c1
77. CCOC(=O)CNC(=S)N(Cc1ccccc1)Cc1cccs1

Assay by compound,76,77
KCNQ2 inh,i,i
KCNQ2 inh baseline,0.97,-1.7

Later entries.
nr	canonical_smiles	KCNQ2 inh	KCNQ2 inh baseline
81	CC(=O)c1cccc(NC(=O)C2C3C=CC(C3=C(c3ccccc3)c3ccccc3)C2C(=O)O)c1 (stereo not given)	i	-0.04
82	C/C(=N/NS(=O)(=O)c1ccc(Cl)cc1)c1ccncc1	i	0.06
83	COc1ccc(CCC(=O)OCC(=O)N(C)c2c(N)n(Cc3ccccc3)c(=O)[nH]c2=O)cc1	i	-0.42
84	Cn1c(=O)c(C(=O)CN2CCCCC2)c(N)n(Cc2ccccc2)c1=O	i	2.4
85	COc1cc(C(c2c(C)[nH][nH]c2=O)c2c(C)[nH][nH]c2=O)ccc1OS(=O)(=O)c1ccc(C)cc1	i	3.3
86	Cc1cccc(C)c1-n1c(SCC(=O)NCc2ccco2)nc2ccccc2c1=O	i	0.55
87	Cc1nc2ccccc2c(C)c1CC(=O)N(C)CC(=O)Nc1cccc(F)c1	i	1.5
88	CCN(CC)CCN1C(=O)C(=O)/C(=C(/O)c2ccc(OC(C)C)cc2)C1c1ccncc1 (stereo not given)	i	-0.1
89	CC(C)(C)NC(=O)NC(=O)CN1CCN(Cc2ccccc2)CC1	i	0.39
90	CCOC(=O)C1CCN(C(=O)Nc2ccc3nc(-c4ccco4)c(-c4ccco4)nc3c2)CC1	i	4.5
91	COc1cccc(N2CCN(c3ccc4nnc(CCC(=O)Nc5ccccn5)n4n3)CC2)c1	i	-0.52
92	Cc1cc(C)cc(NC(=O)c2nnn(Cc3cc(C)ccc3C)c2N)c1	i	-1.2
93	FC(F)(F)c1cccc(NC(=S)N2CCN(c3ccccn3)CC2)c1	i	-0.5
94	Cc1ccc(C)c(S(=O)(=O)N2CCCOC2CNC(=O)C(=O)NCCC2=CCCCC2)c1 (stereo not given)	i	0.85
95	COc1ccc(NS(=O)(=O)c2cc(NC(=O)c3ccco3)ccc2N2CCCCC2)cc1	i	-1.4
96	O=C(/C=C/c1cccs1)c1ccc(Br)cc1	i	-0.31
97	Cc1cccc(C(=O)N/N=C/c2ccc(OCC(=O)N3CCCCC3)cc2)c1	i	1.7
98	O=C(CSCc1ccc(Cl)cc1)Nc1ccc2c(c1)OCCO2	i	-0.39
99	COc1ccc(-n2c(-c3ccco3)nc3c(cnn3-c3ccc(C)cc3)c2=O)cc1	i	1.8
100	CC1=C(C#N)C(Nc2cccc(C)n2)(C(F)(F)F)C(=O)N1 (stereo not given)	i	-0.82
101	CCCS(=O)(=O)c1snnc1C	i	-0.9
102	CC(C)(C)NC(=O)C1CCN(S(=O)(=O)c2ccc(Br)cc2)CC1	i	0.05
103	COc1cc(-c2noc(C)n2)cc(OC)c1OC	i	-2.3
104	CCC(C)(C(=O)NC1CCCCC1)N(CC1CCCO1)C(=O)Cc1cccs1 (stereo not given)	i	-0.2
105	Cn1c(N/N=C/c2cc3ccccc3nc2Cl)nc2ccccc21	i	-1.5
106	CN(C)S(=O)(=O)c1ccc(C(=O)OCC2CCCO2)cc1 (stereo not given)	i	-1.2
107	CCOc1ccc(NC(=O)CC2C(=O)N(c3ccc(OC)cc3)C(=O)N2Cc2ccc(OC)cc2)cc1 (stereo not given)	i	0.7
108	COc1ccc(O)c(/C=N/NC(=O)c2ccc(CSc3nc(C)cc(C)n3)cc2)c1	i	0.41
109	O=C(O)c1ccc[n+](Cc2ccc([N+](=O)[O-])cc2)c1	i	2
110	CCc1cc(C(N)=O)c(NC(=O)c2ccc(OC)cc2)s1	i	-0.85
111	CC1C2(C)OCC(C#N)(C(=N)O2)C1(C#N)C#N (stereo not given)	i	2
112	COCCNC(=O)C(Cc1c[nH]c2ccccc12)NC(=O)OCc1ccccc1 (stereo not given)	i	1.2
113	O=C(N/N=C\c1cc([N+](=O)[O-])ccc1N1CCOCC1)c1ccccn1	i	-0.19
114	CCCCN(CC)CCNC(=O)c1cc2c(C)nc3ccccc3c2o1	i	-1.6
115	CCCCCOP(=O)(OCCCCC)C1(NS(=O)(=O)c2ccccc2)C=CC(=O)c2ccccc21 (stereo not given)	i	-0.03
116	Cc1cccc(S(=O)(=O)NCCc2cn3ccccc3n2)c1	i	1.3
117	CCCN(CCC)Cc1c(C(=O)N/N=C/C(C)=C\c2ccccc2)nnn1-c1nonc1N	i	2.7
